Screening results (PubChem BioAssay)
CBX7 AlphaScr: blocks human CBX7 binding to H3K27me3 peptide. AlphaScreen His6-CBX7 / biotin-H3K27me3 peptide binding; hits give low values. normalised signal (fraction of DMSO) (no concentration beside the values). actives 1.1% (n = 66,000). AID 1224903; in the data active = normalised signal below about 0.5;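 note: 100 nL library stock added to about 20 µL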
Target sequence (O95931 whole entry, looked up): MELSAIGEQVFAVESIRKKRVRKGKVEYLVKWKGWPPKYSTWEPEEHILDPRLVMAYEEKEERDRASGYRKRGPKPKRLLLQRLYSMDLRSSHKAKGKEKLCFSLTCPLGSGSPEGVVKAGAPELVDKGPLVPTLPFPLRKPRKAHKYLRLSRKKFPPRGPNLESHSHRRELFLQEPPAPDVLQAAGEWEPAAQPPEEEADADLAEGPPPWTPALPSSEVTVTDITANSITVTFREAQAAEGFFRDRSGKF
CBX7 AlphaScr z-score: second read-out of CBX7 AlphaScr, no call of its own (marks repeat the call); z-score; measured here: z-score of CBX7 signal; some inactives read as strong as hits; reference of the scale not given here;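 same signal on another scale; lower means less binding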
Numbers without * were called inactive; & = joins results of further samples. Only part of the results is shown, so the mix of outcomes need not match the whole.

SMILES | CBX7 AlphaScr | CBX7 AlphaScr z-score
O=C(Nc1ccc(Cl)c(-c2nc3ccccc3o2)c1)c1cc2ccccc2o1 | 1 | 0.46
Cn1nc(C(=O)Nc2ccc(F)cc2)c2ccccc2c1=O | 1 | 1.8
Cc1cc(C)c(OCC(O)Cn2c(C)nc3ccccc32)c(C)c1 (configuration not stated) | 0.72&1 | -2.7&-0.027
CCOc1ccc(-c2nc(C#N)c(NC3CC3)o2)cc1 | 0.97 | -0.38
COc1ccc(Cl)cc1Nc1nc(C)nc2sc3c(c12)CCCC3 | 0.92 | -2.1
COc1ccc(N2CCN(CC(O)COc3ccc4c(c3)OCO4)CC2)cc1 (configuration not stated) | 0.8 | -2.2
CC1(C)CC(=O)c2sc(NC(=O)c3ccccc3Br)nc2C1 | 1 | -0.11
Cc1ccccc1-n1nc2c(c1NC(=O)c1cccc(F)c1)CSC2 | 1 | 0.77
CCC(Cc1ccccc1)NC(=O)CN1C(=O)CSc2ncccc21 (configuration not stated) | 1 | 1.3
CC(=O)Nc1nc(C)c(-c2nc3ccc([N+](=O)[O-])cc3[nH]2)s1 | 0.89 | -0.11
CC(CCCc1ccc(F)cc1)c1cc(O)c2c(c1)OC(C)(C)C=C2c1ccncc1 (configuration not stated) | 0.51 | -9.7
COc1cccc(Nc2nc(-c3cccnc3)nc3ccccc23)c1 | 1.1 | 0.14
CCOC(=O)c1ccccc1NC(=O)CCc1nc(-c2ccc(C)cc2)no1 | 1.3 | 4.9
CCCCCCCCCOc1ccc(-c2cn3nc(-c4ccccc4Cl)sc3n2)cc1 | 1 | 0.59
COC(=O)C(CC(C)C)NC(=O)c1c(-c2ccccc2Cl)noc1C (configuration not stated) | 1 | -0.022
O=C(Cn1ncc2ccsc2c1=O)NCCCN1CCN(C2CCCCC2)CC1 | 1.1 | 1.5
Cc1ccsc1-c1nc(CSCC(=O)NCc2ccc(Cl)cc2)c(C)o1 | 0.86 | -2.6
Cc1cccc2c1-c1sc(C(=O)Nc3nccs3)cc1CO2 | 1.1 | 2.6
CC(=O)Nc1ccc(NC(=O)c2sc3nc(-c4ccccc4)cn3c2C)cc1 | 0.92 | -1.6
COc1ccc(C(=O)N2CC(=O)Nc3ccc(Br)cc3C2c2ccccc2)c(OC)c1 (configuration not stated) | 1 | 0.2
COc1ccccc1C(=O)Nc1c2c(nn1-c1ccccc1C)CSC2 | 0.98 | -0.42
COc1cc(OC)c(NC(=O)Cn2ncc3c2-c2cc(C)ccc2OC3)cc1Cl | 1 | 0.091
CC(=O)N1CCc2cc(S(=O)(=O)NC(Cc3ccccc3)C(=O)NC(C)c3ccccc3)ccc21 (configuration not stated) | 0.9 | -1.8
O=C(NCc1c(F)cc(F)cc1F)c1ccc2c(c1)N(Cc1ccc(Cl)cc1)C(=O)CS2 | 0.99 | -0.29
COc1ccc(Cl)cc1NC(=O)Cc1c(C(=O)O)n(C)c2ccccc12 | 1 | 0.0091
CC1CCN(S(=O)(=O)c2ccc3c(c2)N(CC(=O)NC(C)c2ccccc2)C(=O)CO3)CC1 (configuration not stated) | 1 | 1.1
O=C1CC(n2c(CCc3ccccc3)nc3ccccc32)C(=O)N1c1ccc(F)cc1 (configuration not stated) | 1 | 0.0053
c1csc(Cc2noc(-c3ccncc3)n2)c1 | 1.1 | 0.12
Fc1ccc(Nc2c(-c3ccccn3)nc3ccccn23)cc1 | 0.059* | -9.1*
Cc1cc(F)ccc1NC(=O)c1cc2sccc2n1Cc1ccc(F)cc1 | 1 | 0.27
COc1cccc(-c2nc(CS(=O)(=O)CC(=O)NC3CCCCCC3)c(C)o2)c1 | 1 | 0.34
O=C(NCc1ccccc1Cl)C1CC(=O)N(CCc2ccccc2)C1 (configuration not stated) | 1 | 1.3
Cc1ccc(-c2ccc(=O)n(CC(=O)NCCN3CCOCC3)n2)cc1 | 1.1 | 2.4
COC(=O)c1cccc(Nc2nc(-c3cccnc3)nc3ccccc23)c1 | 0.94 | -2.2
COc1ccc(-c2nnc(NC(=O)c3cccc(C)c3)s2)cc1OC | 0.99 | -0.15
CCn1c(=N)n(CC(=O)c2ccc(Cl)c(Cl)c2)c2ccccc21 | 1 | 1.4
CCN(CC)CCCNC(=O)C1CCCN(c2nn3c(=O)cc(C)nc3s2)C1 (configuration not stated) | 0.96 | -0.37
Cc1ccc(-n2cnc3cc(Nc4nnc(C)c5ccccc45)ccc32)cc1 | 0.75 | -5.2
Cc1ccc(Nc2nnc(-c3ccc(C)c(S(=O)(=O)N4CCN(C)CC4)c3)c3ccccc23)cc1 | 1 | 0.013
COC(=O)CNC(=O)Cn1cnc2sc(C)c(S(=O)(=O)N3CCC(C)CC3)c2c1=O | 1.2 | 2.1
CCOc1ccccc1NC(=O)CSc1nnc(-c2c[nH]c3ccccc23)n1C | 0.87 | -2.2
Cc1nc(Nc2cccc(C(F)(F)F)c2)c2cc(C)sc2n1 | 1.1 | 5.9
CCN1CCCC1CNC(=O)c1cn(CC)c2nc(C)ccc2c1=O (configuration not stated) | 1.1 | 0.59
CC(=O)Nc1ccc(Oc2nc(C)nc3sc4c(c23)CCCC4)cc1 | 0.99 | -0.11
COc1cc2ccccc2cc1C(=O)Nc1nc2ccccc2s1 | 1 | 0.37
Cc1nc2cc(-c3ccc(Cl)cc3)nn2c(C)c1CCC(=O)Nc1ccc2c(c1)OCCO2 | 1 | 0.35
COCCCNC(=O)c1sc2ncn(CC(=O)N3CC(C)CC(C)C3)c(=O)c2c1C (configuration not stated) | 1.1 | 1.8
COc1ccc(-c2nc(C(=O)N3CCc4ccccc4C3)c(C)o2)cc1 | 0.87 | -2.4
COc1ccc(-c2noc(-c3cc(OC)c(OC)c(OC)c3)n2)cc1 | 0.96 | -0.81
CCC(=O)N1CCc2cc(S(=O)(=O)NCCCN3CCN(CC)CC3)ccc21 | 1 | 0.2
New compounds follow.
SMILES | CBX7 AlphaScr | CBX7 AlphaScr z-score
Cc1ccc(S(=O)(=O)c2nc(-c3ccc(F)cc3)oc2SCC(=O)NC2CCCCC2)cc1 | 1.1 | 0.18
Cc1noc(C)c1S(=O)(=O)Nc1ccccc1Cl | 1 | 0.73
C=Cc1ccc(-c2csc(Nc3ccccc3)n2)cc1 | 0.88 | -3.5
COc1ccc(NC(=O)Cc2c(C(=O)O)[nH]c3ccc(Cl)cc23)c(OC)c1 | 0.9 | -0.8
O=C1c2ccccc2C(Nc2cccnc2)N1Cc1ccccc1Cl (configuration not stated) | 1.2 | 1.6
CCN(CC)CCNC(=O)c1cc(-c2ccncc2)nc2ccccc12 | 1.1 | 2.9
O=C(CN1CCN(Cc2ccc(F)cc2)C1=O)NCc1ccc2c(c1)OCO2 | 0.78 | -3.1
Cc1ccc2nc(-c3cccnc3)c(Nc3ccccc3)n2c1 | 1.1 | 2.4
COc1ccc(C(=O)Nc2c(C(N)=O)oc3ccccc23)cc1OC | 1 | -0.019
O=C(Nc1ccc(Br)cc1F)C1CCN(S(=O)(=O)c2cnc[nH]2)CC1 | 1.1 | 0.54

Reprinted from the part before: 7 compounds; new compounds follow.
SMILES | CBX7 AlphaScr | CBX7 AlphaScr z-score
COc1ccc(NC(=O)Cc2c(C(=O)O)[nH]c3ccc(Cl)cc23)c(OC)c1 | 0.9 | -0.8
O=C1c2ccccc2C(Nc2cccnc2)N1Cc1ccccc1Cl (configuration not stated) | 1.2 | 1.6
CCN(CC)CCNC(=O)c1cc(-c2ccncc2)nc2ccccc12 | 1.1 | 2.9
O=C(CN1CCN(Cc2ccc(F)cc2)C1=O)NCc1ccc2c(c1)OCO2 | 0.78 | -3.1
Cc1ccc2nc(-c3cccnc3)c(Nc3ccccc3)n2c1 | 1.1 | 2.4
COc1ccc(C(=O)Nc2c(C(N)=O)oc3ccccc23)cc1OC | 1 | -0.019
O=C(Nc1ccc(Br)cc1F)C1CCN(S(=O)(=O)c2cnc[nH]2)CC1 | 1.1 | 0.54
O=C(NCCc1ccc(Cl)cc1)C1CCC(=O)N1Cc1ccc(F)cc1 (configuration not stated) | 1.1 | 2.5
COc1ccc(NS(=O)(=O)c2ccc3c(c2)CCN3C(=O)CCC(=O)O)cc1OC | 0.82 | -2.9
O=C(NCCN1CCN(c2cccc(Cl)c2)CC1)Nc1cccc2ccccc12 | 0.96 | -0.86
COc1ccc(S(=O)(=O)N2CC=C(C(=O)Nc3c(C)cccc3C)CC2)cc1 | 1 | 1.7
COc1ccc(C2c3c(-c4ccc(C)cc4)n[nH]c3C(=O)N2c2ccc(F)cc2)c(OC)c1 (configuration not stated) | 0.68 | -3.6
Cc1cc(NC(=O)Nc2cccc(Cl)c2)no1 | 0.91 | -1.6
CCC1CCCCN1C(=O)c1sc2ncn(CC(=O)N3CCC(C)CC3)c(=O)c2c1C (configuration not stated) | 1.2 | 2
Cc1ccc(CCNC(=O)C2CCCN(C(=O)N(C)C)C2)cc1 (configuration not stated) | 1.1 | 1.1
CC(C)c1nnc(NC(=O)c2ccc(S(=O)(=O)N3CCCC3)cc2)s1 | 0.96 | -0.79
CCOC(=O)c1oc2ccccc2c1NC(=O)C1CC1 | 1 | 0.17

4 entries from above, with values under each structure.
Below each SMILES – CBX7 AlphaScr, CBX7 AlphaScr z-score
COc1ccc(C2c3c(-c4ccc(C)cc4)n[nH]c3C(=O)N2c2ccc(F)cc2)c(OC)c1 (configuration not stated)
    0.68, -3.6
CCC1CCCCN1C(=O)c1sc2ncn(CC(=O)N3CCC(C)CC3)c(=O)c2c1C (configuration not stated)
    1.2, 2
CC(C)c1nnc(NC(=O)c2ccc(S(=O)(=O)N3CCCC3)cc2)s1
    0.96, -0.79
O=C(NCCN1CCN(c2cccc(Cl)c2)CC1)Nc1cccc2ccccc12
    0.96, -0.86

Next entries.
SMILES | CBX7 AlphaScr | CBX7 AlphaScr z-score
CCN(CC)CCOC(=O)c1ccc(NC(=O)Cn2ncc3c2-c2ccccc2OC3)cc1 | 0.95 | -1.4
Cc1onc(-c2c(Cl)cccc2Cl)c1C(=O)N1CCOCC1 | 1 | 0.061
Cc1nc2c(-c3ccccc3)c(C)nn2c(C)c1CCC(=O)NC1CCCC1 | 1.1 | 1.1
CCCc1nc2ccccc2n1CC(N)=O | 0.99 | -0.4
O=C(c1ccc(Cl)cc1)c1oc2ccccc2c1NC(=O)C1COc2ccccc2O1 (configuration not stated) | 0.86 | -1.8
Cc1cc2c(cc1C)NC(CC(=O)Nc1ccc(N(C)C)cc1)C(=O)N2 (configuration not stated) | 0.99 | -0.55
CC1c2nc3ccccc3n2C(CC(=O)NCCCN2CCOCC2)C(=O)N1Cc1ccccc1 (configuration not stated) | 0.94 | -2.7
Cc1cccc(-n2c(Cc3cc(=O)[nH]c(=O)[nH]3)nnc2SCC(=O)Nc2cc(C)ccc2C)c1 | 1 | -0.019
FC(F)(F)Oc1ccc(Nc2nc3ccccc3o2)cc1 | 1.1 | 0.71
CCC(C(=O)NCCc1ccc(C)cc1)n1ncc2ccccc21 (configuration not stated) | 1 | 0.55

Three entries already listed, sorted by heavy-atom count, descending.
SMILES | CBX7 AlphaScr | CBX7 AlphaScr z-score
CC1c2nc3ccccc3n2C(CC(=O)NCCCN2CCOCC2)C(=O)N1Cc1ccccc1 (configuration not stated) | 0.94 | -2.7
CCN(CC)CCOC(=O)c1ccc(NC(=O)Cn2ncc3c2-c2ccccc2OC3)cc1 | 0.95 | -1.4
CCC(C(=O)NCCc1ccc(C)cc1)n1ncc2ccccc21 (configuration not stated) | 1 | 0.55

Next part.
SMILES | CBX7 AlphaScr | CBX7 AlphaScr z-score
COc1ccc(C(O)(CCN2CCCCC2)C2CCCCC2)cc1 (configuration not stated) | 1.1 | 2.2
CCCN1CCCc2cc(CN(CCCN3CCOCC3)C(=O)Nc3ccccc3)ccc21 | 0.8 | -3.1
COc1cccc(NC(=O)c2ccc(CNc3c(N4CCC(C)CC4)c(=O)c3=O)cc2)c1 | 0.77 | -1.3
Cc1ccc(C)c(CN2C(=O)CSc3ccc(C(=O)NCc4cccs4)cc32)c1 | 1 | 0.36
CCOc1ccc(CCNC(=O)Cc2c(C(=O)O)[nH]c3ccc(Cl)cc23)cc1OCC | 1 | 0.28
O=C(Nc1nc(-c2ccccc2)c(-c2ccccc2)s1)c1ccc(S(=O)(=O)N2CCOCC2)cc1 | 1 | 0.18
CCCCN(CC)S(=O)(=O)c1ccc(C(=O)Nc2nc3c(OCC)cccc3s2)cc1 | 1.1 | 1
CCOc1ccc(C(O)c2cnc(CC)n2C)cc1 (configuration not stated) | 0.99 | -0.05
Cc1ccc(CNC(=O)c2cccc3c2C(=O)N(C2CCCCC2)C3)cc1 | 1 | 1.3
CC1CCCN(S(=O)(=O)c2ccc(C(=O)Nc3ccc(-c4nc5ccccc5[nH]4)cc3)cc2)C1 (configuration not stated) | 1 | -0.025
Cc1ccc(C2C(=O)N(C3CCC(C)CC3)CC(=O)N2CCc2ccccc2Cl)cc1 (configuration not stated) | 1.1 | 0.58
Cc1ccc(S(=O)(=O)N=C(N)Nc2nc(C)c3ccc(C)cc3n2)cc1 | 1 | 0.36
Cc1ccc(NC(=O)CSc2nnc(Cc3cc(=O)[nH]c(=O)[nH]3)n2-c2ccc(F)cc2)c(C)c1 | 1 | 0.61
COc1ccc(NC(=O)C2OC3OC(C)(C)OC3C3OC(C)(C)OC23)cc1Cl (configuration not stated) | 1.1 | 0.74
COc1ccc(-c2c3c(=O)n(C)c(=O)n(C)c3cn2-c2ccc(C)cc2)cc1 | 0.7 | -3.5
Cc1ccc(-n2ncc(C(=O)Nc3ccccc3C)c2C2CCNCC2)cc1C | 1 | -0.065
Cc1ccccc1-c1nnc2n1C(C)(C)Cc1ccccc1-2 | 1.1 | 4.4
O=C(O)CC1(CC(=O)Nc2nccs2)CCCCC1 | 1 | 0.25
O=C(Nc1ccc2oc(-c3ccccc3)nc2c1)c1cccnc1Cl | 0.98 | -0.37
CCOC(=O)c1cnc2cc(Cl)c(OC)cc2c1NC1CCCCC1 | 1.2 | 2
COCc1nnc(NC(=O)c2c(-c3c(Cl)cccc3Cl)noc2C)s1 | 1.2 | 2
